nsP2pro primary – CHIKV nsP2 protease inhibition, primary qHTS | AID 1964107 | FRET peptide cleavage, nsP2pro, fluorescence 1 h | Potency, µM (top dose mostly 24.9 µM), inactives show at the top dose activity change, negative = inhibition, most hits filed as inhibitors | actives 1.1% (n = 31,000) | Q8JUX6; active means well fitted inhibition curve with a large enough effect; inconclusive means small, poorly fitted or top-dose-only effect; inactive means no such curve, though single readings can be large or run the other way; note: nearly all actives have a fitted effect of over 60% in size; a reference inhibitor and vehicle were the controls
Target sequence (Q8JUX6 whole entry, looked up): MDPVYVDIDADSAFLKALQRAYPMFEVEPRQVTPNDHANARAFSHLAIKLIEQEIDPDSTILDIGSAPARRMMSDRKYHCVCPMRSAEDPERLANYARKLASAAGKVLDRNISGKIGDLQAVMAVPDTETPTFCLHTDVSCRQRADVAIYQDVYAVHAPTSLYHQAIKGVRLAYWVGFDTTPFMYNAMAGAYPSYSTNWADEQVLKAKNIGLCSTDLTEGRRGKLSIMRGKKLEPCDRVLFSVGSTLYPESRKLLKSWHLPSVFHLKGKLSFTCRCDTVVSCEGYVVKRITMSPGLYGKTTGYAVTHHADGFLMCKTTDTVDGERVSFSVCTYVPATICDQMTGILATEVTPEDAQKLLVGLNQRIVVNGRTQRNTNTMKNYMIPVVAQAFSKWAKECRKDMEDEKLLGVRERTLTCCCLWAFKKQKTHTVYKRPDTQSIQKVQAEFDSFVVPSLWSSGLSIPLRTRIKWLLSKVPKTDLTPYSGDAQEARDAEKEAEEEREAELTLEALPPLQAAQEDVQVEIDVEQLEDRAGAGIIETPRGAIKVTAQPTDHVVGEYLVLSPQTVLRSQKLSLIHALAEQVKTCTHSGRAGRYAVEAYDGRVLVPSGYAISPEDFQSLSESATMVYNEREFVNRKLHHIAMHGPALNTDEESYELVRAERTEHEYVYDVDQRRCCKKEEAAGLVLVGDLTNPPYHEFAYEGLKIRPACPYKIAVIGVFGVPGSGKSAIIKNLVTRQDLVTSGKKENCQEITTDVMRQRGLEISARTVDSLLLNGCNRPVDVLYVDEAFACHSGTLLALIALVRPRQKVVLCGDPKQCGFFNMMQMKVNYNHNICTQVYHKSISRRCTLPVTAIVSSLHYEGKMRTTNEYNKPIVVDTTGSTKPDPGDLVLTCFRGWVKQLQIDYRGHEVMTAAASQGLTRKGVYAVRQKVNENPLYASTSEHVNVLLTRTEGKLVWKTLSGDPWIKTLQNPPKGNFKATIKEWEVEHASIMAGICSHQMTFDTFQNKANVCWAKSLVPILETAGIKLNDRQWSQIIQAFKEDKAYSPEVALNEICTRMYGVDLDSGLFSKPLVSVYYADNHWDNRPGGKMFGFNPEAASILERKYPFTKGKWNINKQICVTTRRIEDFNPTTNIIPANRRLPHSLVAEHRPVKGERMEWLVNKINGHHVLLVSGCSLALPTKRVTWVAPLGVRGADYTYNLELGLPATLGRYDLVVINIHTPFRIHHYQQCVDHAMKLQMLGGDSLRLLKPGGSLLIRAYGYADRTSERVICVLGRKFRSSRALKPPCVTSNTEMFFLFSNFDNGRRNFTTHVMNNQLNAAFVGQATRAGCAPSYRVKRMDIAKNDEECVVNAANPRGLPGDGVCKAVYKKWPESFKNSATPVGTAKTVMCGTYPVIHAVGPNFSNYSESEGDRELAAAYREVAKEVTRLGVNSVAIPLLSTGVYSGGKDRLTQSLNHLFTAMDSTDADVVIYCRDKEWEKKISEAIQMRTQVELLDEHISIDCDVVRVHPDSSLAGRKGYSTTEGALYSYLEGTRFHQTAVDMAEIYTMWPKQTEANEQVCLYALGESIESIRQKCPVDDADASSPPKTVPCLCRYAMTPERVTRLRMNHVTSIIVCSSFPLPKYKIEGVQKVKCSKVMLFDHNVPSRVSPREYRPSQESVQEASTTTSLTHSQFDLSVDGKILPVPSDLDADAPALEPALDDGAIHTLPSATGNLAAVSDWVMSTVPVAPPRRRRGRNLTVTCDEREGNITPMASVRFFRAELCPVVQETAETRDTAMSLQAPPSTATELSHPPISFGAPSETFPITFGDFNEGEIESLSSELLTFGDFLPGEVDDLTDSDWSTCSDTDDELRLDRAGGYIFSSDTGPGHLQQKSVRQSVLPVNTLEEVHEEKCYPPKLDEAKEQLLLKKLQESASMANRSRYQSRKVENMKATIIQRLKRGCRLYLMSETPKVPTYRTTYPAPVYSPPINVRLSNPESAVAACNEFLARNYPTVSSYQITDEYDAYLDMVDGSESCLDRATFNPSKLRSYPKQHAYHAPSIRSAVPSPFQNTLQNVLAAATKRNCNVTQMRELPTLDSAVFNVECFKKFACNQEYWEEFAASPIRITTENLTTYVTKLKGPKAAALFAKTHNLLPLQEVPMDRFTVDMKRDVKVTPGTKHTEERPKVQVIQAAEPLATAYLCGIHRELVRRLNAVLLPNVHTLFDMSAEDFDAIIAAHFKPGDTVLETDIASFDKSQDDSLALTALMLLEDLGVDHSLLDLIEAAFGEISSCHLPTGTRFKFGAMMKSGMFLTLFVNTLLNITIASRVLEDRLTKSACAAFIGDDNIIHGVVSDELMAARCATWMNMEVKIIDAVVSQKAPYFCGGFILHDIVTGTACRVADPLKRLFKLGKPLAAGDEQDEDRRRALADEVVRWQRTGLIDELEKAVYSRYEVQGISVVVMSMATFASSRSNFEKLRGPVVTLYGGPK
Numbers without * were called inactive; & = joins results of further samples; [ ] = dose if it differs, or a comment. % is set by controls: 0 for no effect and ±100 for the full control effect; potency is the fitted concentration of half-maximal effect.

`CC(=O)c1ccc(N2CCN(S(=O)(=O)c3ccc4[nH]c5c(c4c3)CCCCC5)CC2)cc1` gave nsP2pro primary -26.1%.
For COc1cccc(C2C(C(=O)Nc3ccc(Cl)cc3)=C(C)Nc3nc4ccccc4n32)c1OC (stereo not drawn) the results were nsP2pro primary -0.9%.
Screening CC1=CC2/C=C(\C)CCC(O)C(O)C(O)CC(=O)C23C(=O)NC(CC(C)C)C3C1C (stereo not drawn) returned nsP2pro primary -22.7%[10 µM].
Screening Cc1ccc(CSc2nc3c(c(=O)[nH]2)C(c2cccc(F)c2F)CC(=O)N3)cc1 (stereo not drawn) returned nsP2pro primary -18.9%.
For CN1CCN(c2cc(-c3cc(O)c4ncccc4c3)ccn2)CC1 the results were nsP2pro primary -3.2%.
Screening CC(C)c1ccccc1NC(=O)CSc1nnc(COc2ccccc2)o1 returned nsP2pro primary -13.6%.
CC(=O)c1ccc(NC(=O)OC[C@H]2C[C@@H]3CCN2C[C@@H]3c2cc(C3CCCC3)nc(-c3ccncc3)n2)cc1 was read as nsP2pro primary inactive.
Screening Nc1ccn(C[C@@H](CO)OCP(=O)(O)O)c(=O)n1 returned nsP2pro primary -2.2%[5.1 µM].
For C[C@@H](N)C(=O)Nc1cccc(-c2nn3c(=O)cc(N4CCNCC4)nc3s2)c1 the results were nsP2pro primary inactive.
Screening Cn1nnnc1SCCNCc1ccc(Cl)c(Cl)c1 returned nsP2pro primary -13.0%.
For CCOC(=O)c1ccc(CN(Cc2ccc(C)cc2)S(=O)(=O)c2ccc(NC(C)=O)cc2)cc1 the results were nsP2pro primary 24.4%.
`COc1cc2c(cc1OCC1CC1)NC(=O)C21CCN(c2ccnc(C)n2)CC1` gave nsP2pro primary 25.4%[39.2 µM].
CCN(CC)c1ccc(NC(=O)CN(C)Cc2c(O)ccc3ccccc23)cc1 was read as nsP2pro primary -1.4%.
For COc1cc(CNc2ccc3[nH]c(=O)[nH]c3c2)cc(Br)c1OCc1ccc(F)cc1 the results were nsP2pro primary -22.7%.
Cc1cc(C(=O)NC[C@@H]2OC[C@@]3(C)[C@H]4CC[C@@H](O)[C@@H](CC(=O)N5CCCC5)[C@]4(C)CC[C@H]3O2)no1 was read as nsP2pro primary -1.9%.
Screening CCN(CC)CCNC(=O)c1sc2nc3n(c(=O)c2c1C)CCCCC3 returned nsP2pro primary -6.3%.
For CC1CC(=O)C2=C(C1)C1OC1C1(O)C2C(=O)c2cccc(O)c2C1O (stereo not drawn) the results were nsP2pro primary -10.6%.
For COC(=O)[C@H](O)[C@H]1C(C)(C)[C@H](OC(=O)C(C)C)[C@@]2(O)C(=O)[C@]1(C)C1CC[C@]3(C)C(CC(=O)O[C@H]3c3ccoc3)[C@]13O[C@@H]32 (stereo partly drawn) the results were nsP2pro primary inconclusive.
For COCC1CN(C)CC12CCN(C(=O)c1cc3ccccc3[nH]1)CC2 (stereo not drawn) the results were nsP2pro primary inactive.
Screening CCCCCCCCCCCC(=O)OCN1C(=O)CCc2ccc(OCCCCN3CCN(c4cccc(Cl)c4Cl)CC3)cc21 returned nsP2pro primary -1.0%[5.1 µM].

Next section; the last two above are carried over.
For COCC1CN(C)CC12CCN(C(=O)c1cc3ccccc3[nH]1)CC2 (stereo not drawn) the results were nsP2pro primary inactive.
Screening CCCCCCCCCCCC(=O)OCN1C(=O)CCc2ccc(OCCCCN3CCN(c4cccc(Cl)c4Cl)CC3)cc21 returned nsP2pro primary -1.0%[5.1 µM].
Screening O=C1C(Cl)=C(N2CCOCC2)C(=O)N1c1ccc(Cl)c(Cl)c1 returned nsP2pro primary inconclusive.
For CC(=O)O[C@@H]1[C@@H](OC(C)=O)[C@H](C)O[C@@H](O[C@H]2[C@@H]3C=CO[C@@H](O[C@@H]4O[C@H](CO)[C@@H](O)[C@H](O)[C@H]4O)[C@@H]3[C@@]3(CO)O[C@@H]23)[C@@H]1OC(=O)/C=C/c1ccccc1 the results were nsP2pro primary -7.7%[10 µM].
`COc1cc(NCc2ccc3nc(N)nc(N)c3c2C)cc(OC)c1OC` gave nsP2pro primary inconclusive.
For COc1cc(OC)cc(-c2nnc3n2N=C(c2ccc(OC)cc2OC)CS3)c1 the results were nsP2pro primary -0.7%.
For O=C1NN=C(c2ccccn2)C12CCN([S+](=O)([O-])c1cccc(C(F)(F)F)c1)CC2 the results were nsP2pro primary -6.2%.
For COc1c(OC2OC(CO)C(O)C(O)C2O)ccc(O)c1C(=O)OCc1ccccc1O[C@@H]1O[C@H](CO)[C@@H](O)[C@H](O)[C@H]1O (stereo partly drawn) the results were nsP2pro primary 2.7%[10 µM].
`CCCCOc1ccc(C(=O)Nc2cccc(-c3nc4cccnc4s3)c2)cc1` gave nsP2pro primary -24.3%.
Screening COc1ccccc1C(=O)Nc1nnc(SCc2cc(=O)n3ccc(C)cc3n2)s1 returned nsP2pro primary -20.5%.
CC(=O)Nc1c(C)nn(-c2ccccc2)c1N1CCC(C(=O)Nc2cccc(C(F)(F)F)c2)CC1 was read as nsP2pro primary -10.8%.
For CNc1oc(-c2c[nH]c3ccccc23)nc1C#N the results were nsP2pro primary inactive.
`C[C@H](Oc1cc(-c2cnn(C3CCNCC3)c2)cnc1N)c1c(Cl)ccc(F)c1Cl` gave nsP2pro primary 93.8%&114.2%[activator].
CC(C)CN1CC2(C1)C(=O)N(CCCN1CCCC1=O)C(=O)[C@@H]1C[C@@H](O)CN12 was read as nsP2pro primary -2.2%[39.2 µM].
`O=c1[nH]nc2n1CCN(C1CCOCC1)CC2` gave nsP2pro primary 3.4%.
Cc1ccc(Cl)cc1NC(=O)C1CCCN(c2cnccn2)C1 (stereo not drawn) was read as nsP2pro primary -12.4%.
For CC(C)N(CCCNC(=O)Nc1ccc(C(C)(C)C)cc1)C[C@H]1O[C@@H](n2ccc3c(N)ncnc32)[C@H](O)[C@@H]1O the results were nsP2pro primary 16.4%.
COc1ccc(S(=O)(=O)N(CC(=O)Nc2ccc(Br)cc2)Cc2ccccc2)cc1 was read as nsP2pro primary 1.7%.
CCOC(=O)Cc1ccc(NC(=O)N2CCC(CN3CCC(C)CC3)CC2)cc1 was read as nsP2pro primary -19.0%.
For CC(=O)Nc1ncc(S(=O)(=O)N2CCOCC2)s1 the results were nsP2pro primary 4.3%.
Screening O=C(O)c1cc(Br)c(O)c2ncccc12 returned nsP2pro primary inactive.
CCOC(=O)C(CCc1ccccc1)NC(C)C(=O)N1CCCC1C(=O)O (stereo not drawn) was read as nsP2pro primary -10.6%.
For COc1ccc(C2Nc3ccccc3C(=O)N2Cc2ccccc2)cc1COc1ccc(C#N)cc1 (stereo not drawn) the results were nsP2pro primary inconclusive.
`O=C(OCC#CCSc1nnc(-c2ccco2)o1)c1ccc(F)cc1` gave nsP2pro primary -8.4%.
`O=C(Nc1cccs1)NC1CCN(c2ccc(C(F)(F)F)cn2)C1` (stereo not drawn) gave nsP2pro primary inconclusive.
`Cc1cc(Br)ccc1NC(=O)Cn1cnc2sc(C)c(S(=O)(=O)N3CCN(C)CC3)c2c1=O` gave nsP2pro primary -16.3%.
`Cc1cc(C)n2ncc(C(=O)Nc3ccccc3)c2n1` gave nsP2pro primary -10.3%.
`CC(C)C(=O)N1CCN(c2nc3c(s2)CC(C(=O)NCc2ccco2)CC3)CC1` (stereo not drawn) gave nsP2pro primary -29.9%.
Screening O=C1c2ccccc2CN1C1CCN(Cc2cccc3ccccc23)CC1 returned nsP2pro primary -7.6%.
For COC1CC(OC2CCC3(C)C(CCC4C3CCC3(C)C(C5=CC(=O)OC5)C(OC(C)=O)CC43O)C2)OC(C)C1OC1OC(CO)C(O)C(O)C1O (stereo not drawn) the results were nsP2pro primary 14.6%[10 µM].
Screening C[S+](=O)([O-])CCn1ncc2cc(OCC3CCN(Cc4ccccc4)CC3)ccc21 returned nsP2pro primary 0.9%[39.2 µM].
Screening CCNC(=O)[C@@H]1C[C@H](NC(=O)Cc2cccc(F)c2F)CN1C1CCCC1 returned nsP2pro primary -11.2%.
For COc1ccc(CCNc2ncnc3c2c(-c2ccccc2)cn3-c2cccc(Cl)c2)cc1OC the results were nsP2pro primary -11.3%.
For COC(=O)c1cc(S(=O)(=O)NCC2CCN(Cc3ccc(C)cc3)CC2)cn1C the results were nsP2pro primary -18.9%.
`CCCCn1c(-c2ccccc2)nc(-c2ccccc2)c1CN(Cc1ccc2c(c1)OCO2)Cc1ccc2c(c1)OCO2` gave nsP2pro primary 1.9%.
COc1cc(C)c(C(=O)O[C@H]2[C@@H](O)[C@H](n3ccc(=O)[nH]c3=O)O[C@@H]2CO)c(OC)c1 was read as nsP2pro primary -9.9%[10 µM].
Oc1ccccc1CN1CC(CNc2cccnc2)C2(C1)CN(c1ccccc1)C2 (stereo not drawn) was read as nsP2pro primary inconclusive.
For O=C(NCc1ccco1)C1CCc2nc(N3CCN(C(=O)C4CCC4)CC3)sc2C1 (stereo not drawn) the results were nsP2pro primary -22.5%.
For O=C(NCCc1ccc(Cl)cc1)c1ccc2c(c1)N(Cc1ccccc1)C(=O)CS2 the results were nsP2pro primary -30.4%.
`O=C(OCC#CCSc1nnc(-c2cccc3ncccc23)o1)c1ccc(F)cc1` gave nsP2pro primary -7.8%.
O=C(Cc1ccccc1)Nc1c(C(=O)N2CCN(c3ccc(F)cc3)CC2)oc2ccccc12 was read as nsP2pro primary -29.0%.
Cc1ccc(OC2=NS(=O)(=O)c3ccccc32)cc1 was read as nsP2pro primary -3.1%.

Gathered by group: those above with a thiophene ring, fused or not.
Screening CCN(CC)CCNC(=O)c1sc2nc3n(c(=O)c2c1C)CCCCC3 returned nsP2pro primary -6.3%.
`O=C(Nc1cccs1)NC1CCN(c2ccc(C(F)(F)F)cn2)C1` (stereo not drawn) gave nsP2pro primary inconclusive.
`Cc1cc(Br)ccc1NC(=O)Cn1cnc2sc(C)c(S(=O)(=O)N3CCN(C)CC3)c2c1=O` gave nsP2pro primary -16.3%.

The main list resumes with the 5 entries that preceded the break.
For O=C(NCc1ccco1)C1CCc2nc(N3CCN(C(=O)C4CCC4)CC3)sc2C1 (stereo not drawn) the results were nsP2pro primary -22.5%.
For O=C(NCCc1ccc(Cl)cc1)c1ccc2c(c1)N(Cc1ccccc1)C(=O)CS2 the results were nsP2pro primary -30.4%.
`O=C(OCC#CCSc1nnc(-c2cccc3ncccc23)o1)c1ccc(F)cc1` gave nsP2pro primary -7.8%.
O=C(Cc1ccccc1)Nc1c(C(=O)N2CCN(c3ccc(F)cc3)CC2)oc2ccccc12 was read as nsP2pro primary -29.0%.
Cc1ccc(OC2=NS(=O)(=O)c3ccccc32)cc1 was read as nsP2pro primary -3.1%.
For CCc1nc(-c2ccc(OC3CCN(C(=O)Cc4c[nH]c5ccccc45)C3)cc2)no1 (stereo not drawn) the results were nsP2pro primary -5.0%.
CCOc1ccc(-c2cc(CCCC(=O)NCCc3cc(OC)c(OC)c(OC)c3)no2)cc1 was read as nsP2pro primary -10.5%.
Screening COCCCn1c(SCc2ccccc2F)nc2c(sc3ccccc32)c1=O returned nsP2pro primary -19.9%.
For COc1ccc(NC(=O)CC2CCCCN(C)C2=O)cc1OC (stereo not drawn) the results were nsP2pro primary -7.5%.
NC(=O)c1ccc[n+]([C@@H]2O[C@H](COP(=O)([O-])OP(=O)(O)OC[C@H]3O[C@@H](n4cnc5c(N)ncnc54)[C@H](O)[C@@H]3O)[C@@H](O)[C@H]2O)c1 was read as nsP2pro primary -6.6%.
Screening CN1CCN(C2CCN(Cc3ccc(O)c4ncccc34)CC2)CC1 returned nsP2pro primary -10.3%.
O=C(/C=C/c1ccc(F)cc1)Nc1cccc([S+](=O)([O-])Nc2ccccc2F)c1 was read as nsP2pro primary inactive.
For Cn1nnnc1Sc1ncnc2scc(-c3cc4ccccc4o3)c12 the results were nsP2pro primary inactive.
CCN(CC)C(=O)N1CCC(c2noc(COc3ccc(F)cc3)n2)C1 (stereo not drawn) was read as nsP2pro primary -7.8%.
For COc1ccc(-c2cc3nc(C)c(CCC(=O)Nc4ccccc4C(C)=O)c(C)n3n2)c(OC)c1 the results were nsP2pro primary -18.7%.
`FC(F)(F)c1ccc(CNc2nc(-c3ccccc3C(F)(F)F)nc3ccccc23)cc1` gave nsP2pro primary inactive.
For Cn1cc(CNC(=O)C[C@@H]2C[C@H]3O[C@H](CNC4CCCC4)[C@@H](O)[C@H]3O2)cn1 the results were nsP2pro primary -7.5%[39.2 µM].
Screening OCCOc1ccccc1 returned nsP2pro primary -5.2%[39.2 µM].
`COc1ccc(Cl)cc1NC(=O)c1cc2nc(-c3ccc(C)cc3)cc(C(F)(F)F)n2n1` gave nsP2pro primary 2.9%.
Screening CCOC(=O)CCN(c1ccccc1)S(=O)(=O)c1ccc2[nH]c(=O)ccc2c1 returned nsP2pro primary -14.1%.
CC(=O)N1CCN(C(=S)Nc2cc(C)ccn2)CC1 was read as nsP2pro primary -5.7%.
`CCc1ccc(CNC(=O)Cc2c(C(=O)O)c(C)cn2C)cc1` gave nsP2pro primary -21.9%.
Cc1cccc(N2CCN(C(=O)Cn3nc(C)n4cccc4c3=O)CC2C)c1 (stereo not drawn) was read as nsP2pro primary -26.8%.
Screening CC(C)c1cc(C(=O)N2CCn3nc(C(=O)Nc4ccccc4)cc3C2)n[nH]1 returned nsP2pro primary inactive.
For N[C@H]1CCN(c2cnc3c(O)ccc(C(=O)O)c3c2)C1 the results were nsP2pro primary inactive.
O=C(Cn1ccn2nc3c(c2c1=O)CCCC3)NCc1cccs1 was read as nsP2pro primary 13.4%.
Screening CN1CCN(Cc2cc(COCc3ccccc3)c3cccnc3c2O)CC1 returned nsP2pro primary inactive.
COc1ccc(CNC(=O)C[C@@H]2[C@H](O)CCC3[C@](C)(CO)[C@H](OC(=O)NC(C)C)CC[C@]32C)cc1 (stereo partly drawn) was read as nsP2pro primary -4.4%.
`O=C(c1cn(C2CNC2)nn1)N1CCOCC1` gave nsP2pro primary -13.5%.
For CC(C)(C)OC(=O)NCC(=O)NNC(=O)c1nc2ccccc2[nH]1 the results were nsP2pro primary inactive.
For Cc1cc(C)c2c(n1)SCCN2C(=O)Nc1ccc(C(=O)Nc2ccc(C(C)C)cc2)cc1 the results were nsP2pro primary -11.1%.
Screening CC(C)(C)OC(=O)N1CCN(c2ccc(NCc3ccc4c(c3)OCO4)cc2)CC1 returned nsP2pro primary inconclusive.

These rows are one share of the data (hit frequency here may not be typical).
